Source: PubChem BioAssay
Methyltransferases: Primary Screen for Target Class Profiling of Small Molecule Inhibitors of Methyltransferases; AID 1745853, 2022; purified enzyme, MTase-Glo SAH luminescence; stronger effect = lower value; 3.9% of 25,000 active; calls only at 40 µM; active = -50% or lower on at least one of six enzymes; inconclusive = the cases between; inactive = as a rule above -30% on all six;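 also: enzymes were COMT GAMT GNMT HNMT NNMT and PNMT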
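Each enzyme was assayed with SAM and its substrate. SAH formation detected by MTase-Glo luminescence; single-point 40 uM screen[…].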
Calls only; i = inactive; ? = inconclusive; + = active, no number. % is scaled to controls: 0 for no effect and ±100 for the full control effect. Some of the compounds tested; count on the stated rates, not on these rows.

| structure | Methyltransferases |
| --- | --- |
| COc1ccc(Cl)cc1NC(=O)N1Cc2ccccc2-n2cccc2C1c1cccs1 (centres undefined) | i |
| CC(=O)O[C@H]1C[C@]2(O)[C@@H]3CC[C@@H]4C[C@@H](O)CC[C@]4(C)[C@H]3CC[C@]2(C)[C@H]1c1ccc(=O)oc1 | i |
| CC(=O)OC[C@]12C[C@H](OC(=O)CC(C)C)C(C)=C[C@H]1O[C@@H]1[C@H](O)[C@@H](O)[C@@]2(C)[C@]12CO2 | i |
| COC(=O)CCNC(=O)N1Cc2ccccc2-n2cccc2C1c1cccc(Cl)c1 (centres undefined) | i |
| COc1ccc(CNC(=O)/C=C/c2ccc3[nH]cc(CCN(C)C)c3c2)cc1 | + |
| COc1ccc(OC)c(NC(=O)N2Cc3ccccc3-n3cccc3C2c2ccc(N(C)C)cc2)c1 (centres undefined) | i |
| CC/C=C/C=C/C1(C)OC(OC)=C(C(=O)C2C(C)C(=O)c3cc(OC)c(O)c(O)c3C2(C)O)C1=O (centres undefined) | i |
| COc1ccc(C2c3cccn3-c3ccccc3CN2C(=O)Nc2ccc(OC)c(OC)c2)cc1 (centres undefined) | i |
| CSc1ccc(C2c3cccn3-c3ccccc3CN2C(=O)NCc2ccccc2)cc1 (centres undefined) | i |
| NC(=O)CI | + |
| CCC1c2cccn2-c2ccccc2CN1C(=O)Nc1ccc(F)cc1 (centres undefined) | i |
| COc1ccc(C2c3cccn3-c3ccccc3CN2C(=O)NCCc2ccccc2)cc1OC (centres undefined) | i |
| COc1ccc(OC)c(NC(=O)N2Cc3ccccc3-n3cccc3C2c2ccccc2Cl)c1 (centres undefined) | i |
| CC(C)(NC(=O)[C@@H](N)Cc1ccc(O)cc1)C(=O)N[C@@H](Cc1cc2ccccc2[nH]1)C(=O)N[C@@H](Cc1ccccc1)C(=O)O | i |
| CCc1ccccc1NC(=O)N1Cc2ccccc2-n2cccc2C1c1ccccc1Cl (centres undefined) | i |
| O=C(NCc1ccccc1)c1cn(C2CNC2)nn1 | i |
| COc1ccc(C2c3cccn3-c3ccccc3CN2C(=O)Nc2ccc(C)c(F)c2)cc1OC (centres undefined) | i |
| CCC1c2cccn2-c2ccccc2CN1C(=O)Nc1ccc(F)c(Cl)c1 (centres undefined) | i |
| COc1cccc(CNC(=O)N2Cc3ccccc3-n3cccc3C2C(C)C)c1 (centres undefined) | i |
| CCOC(=O)CNC(=O)N1Cc2ccccc2-n2cccc2C1c1ccccc1 (centres undefined) | i |
| O=C(c1ccc2c(c1)OCO2)N1CCC(C(=O)O)(c2ccccc2)CC1 | i |
| C[C@H](Nc1ncnc2nc[nH]c12)c1nc2ccc(F)cc2c(=O)n1-c1ccccc1 | i |
| Cc1ccc(C2c3cccn3-c3ccccc3CN2C(=O)Nc2ccc(Cl)cc2)cc1 (centres undefined) | i |
| Cc1ccccc1NC(=O)N1Cc2ccccc2-n2cccc2C1c1ccccc1Cl (centres undefined) | i |
| COc1ccc(NC(=O)N2Cc3ccccc3-n3cccc3C2c2cc(F)cc(F)c2)cc1 (centres undefined) | i |
| CCOC(=O)c1ccc(NC(=O)N2Cc3ccccc3-n3cccc3C2c2cccs2)cc1 (centres undefined) | i |
| O=C(NCCc1ccccc1)N1Cc2ccccc2-n2cccc2C1c1cc(F)cc(F)c1 (centres undefined) | i |
| CC(=O)OC[C@]12C[C@H](O)C(C)=C[C@H]1O[C@@H]1[C@H](O)[C@@H](O)[C@@]2(C)[C@]12CO2 | i |
| C[C@]12Cc3cn4c(nc3C=C1CCC1C2CC[C@@]2(C)[C@H]1CC[C@@]2(O)C#N)nc1ccccc14 (some centres undefined) | ? |
| CCOC(=O)CNC(=O)N1Cc2ccccc2-n2cccc2C1c1ccc(OC)c(OC)c1 (centres undefined) | i |
| COc1ccccc1NC(=O)N1Cc2ccccc2-n2cccc2C1c1ccc(C)cc1 (centres undefined) | i |
| CC(C)=CCCC1(C)C=Cc2c(O)c3c(c(CC=C(C)C)c2O1)OC12C(=CC4CC1C(C)(C)OC2(C/C=C(/C)C(=O)O)C4=O)C3=O (centres undefined) | ? |
| CC(=O)Nc1ccc(-c2ccc3n(c2=O)C[C@H]2C[C@@H]3CN(C3CCN(C)CC3)C2)cc1 | i |
| Cc1c(Cl)cccc1NC(=O)N1Cc2ccccc2-n2cccc2C1c1ccccc1 (centres undefined) | i |
| CCOC(=O)c1ccccc1NC(=O)N1Cc2ccccc2-n2cccc2C1c1cccs1 (centres undefined) | i |
| CCn1ccc(C(=O)N2[C@H]3CC[C@@H]2c2cnc(C)nc2C3)n1 | i |
| C[C@H]1CCC[C@H](O)CCC/C=C/c2cc(O)cc(O)c2C(=O)O1 | + |
| OC[C@H]1C[C@@H](NC2CCC2)[C@H](O)[C@@H]1O | i |
| CCOc1ccc(C2c3cccn3-c3ccccc3CN2C(=O)NCc2ccco2)cc1 (centres undefined) | i |
| CSc1ccc(C2c3cccn3-c3ccccc3CN2C(=O)NCc2ccc(C)cc2)cc1 (centres undefined) | i |
| COC1CC(O[C@H]2CC[C@@]3(C)C(=CCC4C3C(O)[C@@H](O)[C@]3(C)[C@@H](C(C)=O)CC[C@]43O)C2)OC(C)C1OC1CC(OC)C(OC2OC(C)C(O)C(O)C2O)C(C)O1 (some centres undefined) | i |
| COC(=O)c1ccccc1NC(=O)N1Cc2ccccc2-n2cccc2C1c1ccc(C)cc1 (centres undefined) | i |
| COC(=O)CCNC(=O)N1Cc2ccccc2-n2cccc2C1c1cccs1 (centres undefined) | i |
| COc1ccc(C2c3cccn3-c3ccccc3CN2C(=O)NCc2ccc(C)cc2)cc1OC (centres undefined) | i |
| CC(=O)N1N=C(c2ccc(N)cc2)c2cc3c(cc2C[C@H]1C)OCO3 | i |
| C=C1[C@@]23C(=O)O[C@H](C)[C@]24O[C@@]2(C(=C)[C@]5(C=CC(=O)OC5(C)C)CC[C@]32C)[C@H](O)[C@@]1(C)OC4=O | i |
| O=C(Nc1cc(F)ccc1F)N1Cc2ccccc2-n2cccc2C1c1ccc(F)cc1 (centres undefined) | i |
| Cc1ccc(CNC(=O)N2Cc3ccccc3-n3cccc3C2c2cccs2)cc1 (centres undefined) | i |
| O=C(O)C1=NOC2CN(Cc3ccccc3)CC12 (centres undefined) | i |
| O=C(Nc1cccc2c1CCCC2)N1Cc2ccccc2-n2cccc2C1c1cccs1 (centres undefined) | i |
| C[N+]1(C)C2CCC1CC(OC(=O)C(CO)c1ccccc1)C2 (centres undefined) | i |
| CCN1C[C@]2(COC(=O)c3ccccc3N3C(=O)C[C@H](C)C3=O)CC[C@H](OC)[C@@]34[C@@H]5C[C@H]6[C@H](OC)[C@@H]5[C@](O)(C[C@@H]6OC)[C@](O)([C@@H](OC)[C@H]23)[C@@H]14 | i |
| Cc1ccccc1C1c2cccn2-c2ccccc2CN1C(=O)NCCc1ccccc1 (centres undefined) | i |
| CCNC(=O)CC1N=C(c2ccc(Cl)cc2)c2cc(OC)ccc2-n2c(C)nnc21 (centres undefined) | ? |
| Cc1ccc(Cl)cc1NC(=O)N1Cc2ccccc2-n2cccc2C1C (centres undefined) | i |
| COc1ccc(NC(=O)N2Cc3ccccc3-n3cccc3C2c2ccc(N(C)C)cc2)cc1OC (centres undefined) | i |

Next section:
| structure | Methyltransferases |
| --- | --- |
| Cn1cc(CNCC2(CO)C[C@@H](O)[C@@H](O)C2)c2ccccc21 (some centres undefined) | i |
| c1cncc(C2=NOC3(CCN(C4COC4)CC3)C2)c1 | i |
| Cn1cnc(CCN)c1 | i |
| O=S(=O)(c1ccccc1F)N1CCOc2c(N3CCNCC3)cccc21 | i |
| CCOc1ccc(C2c3cccn3-c3ccccc3CN2C(=O)Nc2ccccc2CC)cc1 (centres undefined) | i |
| CC[C@@]1(O)C(=O)OCc2c1cc1n(c2=O)Cc2cc3ccccc3nc2-1 | i |
| O=C(Nc1ccc(F)c(Cl)c1)N1Cc2ccccc2-n2cccc2C1c1cccs1 (centres undefined) | i |
| COCCCNC(=O)N1Cc2ccccc2-n2cccc2C1c1ccc(C(C)C)cc1 (centres undefined) | i |
| CC(C)C1c2cccn2-c2ccccc2CN1C(=O)NCc1ccccc1 (centres undefined) | i |
| O=C1NCCCCCCN[C@H]2CCC[C@@H]12 | i |
| COc1ccc(NC(=O)N2Cc3ccccc3-n3cccc3C2c2cccc(Cl)c2)cc1OC (centres undefined) | i |
| O=c1ccc(-c2ccccc2F)c2n1C[C@H]1C[C@@H]2CN(Cc2ccc(CO)o2)C1 | i |
| CC1c2cccn2-c2ccccc2CN1C(=O)Nc1ccc(F)cc1F (centres undefined) | i |
| O=C(O)c1ccnc2cc(C(OCCN3CCCCC3)c3ccccc3Cl)[nH]c12 (centres undefined) | ? |
| Cc1c(C(=O)Nc2cccc(C(F)(F)F)c2)cc(-c2ccccc2)n1CCCN1CCOCC1 | i |
| COC(=O)C1(C)CCC(O)C2(C)c3cc(O)c(C(C)C)cc3C(O)C(OC(C)=O)C12 (centres undefined) | i |
| O=S1(=O)N(CCN2CC=C(c3c[nH]c4cc(F)ccc34)CC2)c2cccc3c2N1CCC3 | + |
| CCc1ccc(NC(=O)N2Cc3ccccc3-n3cccc3C2c2cccc(C)c2)cc1 (centres undefined) | i |
| O=C(Nc1ccc(Br)cc1)N1Cc2ccccc2-n2cccc2C1c1cccs1 (centres undefined) | i |
| COCCO[C@H]1COCCN(C2CCOCC2)C1 | i |
| CSc1ccc(C2c3cccn3-c3ccccc3CN2C(=O)NC(C)C)cc1 (centres undefined) | i |
| CC(C)N1CC2CCC(C1)N2Cc1cccs1 | i |
| CCOc1ccccc1NC(=O)N1Cc2ccccc2-n2cccc2C1c1ccc(C)cc1 (centres undefined) | i |
| CC(=O)C1CCC2C3CCC4C[C@@H](O)CCC4(C)C3CCC12C (some centres undefined) | i |
| CCc1ccc(NC(=O)N2Cc3ccccc3-n3cccc3C2c2cccc(Cl)c2)cc1 (centres undefined) | i |
| O=C(Nc1cccc(Cl)c1)N1Cc2ccccc2-n2cccc2C1c1ccc(F)cc1 (centres undefined) | i |
| Cc1ccc(Cl)cc1NC(=O)N1Cc2ccccc2-n2cccc2C1C(C)C (centres undefined) | i |
| CCCN(CCC)CCc1ccc(OC)c(OCCc2ccccc2)c1 | i |
| O=C(O)c1cn(Cc2ccc(F)cc2Cl)nn1 | i |
| N#CC1(c2ccccc2)CCN(C(=O)c2cn(-c3ccccc3)nn2)CC1 | i |
| O=c1[nH]c2ccccc2n1C1CCN(CCCC(c2ccc(F)cc2)c2ccc(F)cc2)CC1 | ? |
| O=C(Nc1ccc(F)cc1F)N1Cc2ccccc2-n2cccc2C1c1cccs1 (centres undefined) | i |
| CCCN(CCC)CCc1ccc(O)c(O)c1 | i |
| C=C[C@H]1CN2CCC1C[C@H]2[C@H](O)c1ccnc2ccccc12 (some centres undefined) | ? |
| C[C@]12CC[C@H](O)CC1=CC[C@@H]1[C@@H]2CC[C@]2(C)C(=O)CC[C@@H]12 | i |
| CCc1ccc(C2c3cccn3-c3ccccc3CN2C(=O)Nc2ccccc2C(=O)OC)cc1 (centres undefined) | i |
| COCCCNC(=O)N1Cc2ccccc2-n2cccc2C1c1ccc(N(C)C)cc1 (centres undefined) | i |
| Cc1ccc(C)c(CC(=O)N2CCN(CCO)CC(O)C2)c1 (centres undefined) | i |
| c1ccc2c(N3CCNCC3)cccc2c1 | + |
| CCCCCn1cc(C(=O)Oc2cccc3cccnc23)c2ccccc21 | i |

Structural class, the entries above with four or more nitrogen atoms.
| structure | Methyltransferases |
| --- | --- |
| COc1ccc(OC)c(NC(=O)N2Cc3ccccc3-n3cccc3C2c2ccc(N(C)C)cc2)c1 (centres undefined) | i |
| CC(C)(NC(=O)[C@@H](N)Cc1ccc(O)cc1)C(=O)N[C@@H](Cc1cc2ccccc2[nH]1)C(=O)N[C@@H](Cc1ccccc1)C(=O)O | i |
| O=C(NCc1ccccc1)c1cn(C2CNC2)nn1 | i |
| C[C@H](Nc1ncnc2nc[nH]c12)c1nc2ccc(F)cc2c(=O)n1-c1ccccc1 | i |
| C[C@]12Cc3cn4c(nc3C=C1CCC1C2CC[C@@]2(C)[C@H]1CC[C@@]2(O)C#N)nc1ccccc14 (some centres undefined) | ? |
| CC(=O)Nc1ccc(-c2ccc3n(c2=O)C[C@H]2C[C@@H]3CN(C3CCN(C)CC3)C2)cc1 | i |
| CCn1ccc(C(=O)N2[C@H]3CC[C@@H]2c2cnc(C)nc2C3)n1 | i |
| CCNC(=O)CC1N=C(c2ccc(Cl)cc2)c2cc(OC)ccc2-n2c(C)nnc21 (centres undefined) | ? |
| COc1ccc(NC(=O)N2Cc3ccccc3-n3cccc3C2c2ccc(N(C)C)cc2)cc1OC (centres undefined) | i |
| O=S1(=O)N(CCN2CC=C(c3c[nH]c4cc(F)ccc34)CC2)c2cccc3c2N1CCC3 | + |
| N#CC1(c2ccccc2)CCN(C(=O)c2cn(-c3ccccc3)nn2)CC1 | i |
| COCCCNC(=O)N1Cc2ccccc2-n2cccc2C1c1ccc(N(C)C)cc1 (centres undefined) | i |
